# Source: PubChem
# TRPML1 blocker: blocks the human TRPML1 channel. Q9GZU1. TRPML1-inducible cells, Ca2+ dye fluorescence, FDSS; active compounds read low; inhibition of EC80 agonist-evoked calcium signal. activity change, negative = inhibition, % (concentration not given with the values). 390,000 compounds, 0.02% hits; in the data active means activity change below about -50%; inconclusive means about -30% to -50%; inactive means above about -30%;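 note: stimulus is agonist 54-4 at its EC80 concentration; % is set by controls: 0 for no effect and ±100 for the full control effect; the text of the record puts the active cut at -80%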
# Target sequence (Q9GZU1 whole entry, looked up): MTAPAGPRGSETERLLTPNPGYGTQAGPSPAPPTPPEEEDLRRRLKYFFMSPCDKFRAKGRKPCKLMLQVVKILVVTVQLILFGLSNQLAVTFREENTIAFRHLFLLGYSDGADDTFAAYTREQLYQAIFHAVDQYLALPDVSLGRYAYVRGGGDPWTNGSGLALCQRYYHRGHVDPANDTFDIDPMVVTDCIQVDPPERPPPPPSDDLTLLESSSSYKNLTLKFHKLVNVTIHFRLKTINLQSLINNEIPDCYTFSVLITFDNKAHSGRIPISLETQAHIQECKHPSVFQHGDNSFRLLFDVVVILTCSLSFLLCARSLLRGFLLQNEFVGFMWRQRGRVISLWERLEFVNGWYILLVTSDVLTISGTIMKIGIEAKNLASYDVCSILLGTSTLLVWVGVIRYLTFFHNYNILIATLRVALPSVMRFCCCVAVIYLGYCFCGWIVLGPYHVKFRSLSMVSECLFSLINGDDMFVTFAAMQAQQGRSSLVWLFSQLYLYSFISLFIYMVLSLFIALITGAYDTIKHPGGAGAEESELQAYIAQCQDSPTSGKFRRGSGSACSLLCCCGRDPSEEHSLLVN
#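 Calcium fluorescence in TRPML1-DL cells induced overnight with Tet: a 110 s read after compound pin addition, then a 110 s antagonist read after challenge with 54-4 at 4 uM final (EC80).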
# D2 agonist: agonists of human D2 dopamine receptor (beta-arrestin); P14416; DiscoveRx PathHunter D2 beta-arrestin, luminescence, 90 min; 100% = 57 uM dopamine signal; activation, % (no concentration beside the values); 360,000 compounds, 0.084% hits; AID 624465; in the data active = activation above about 40%; inconclusive = about 15% to 40%; inactive = below about 15%; note: compound concentration not given in the record; the text of the record calls up to 30% inactive
# Target sequence (P14416 whole entry, looked up): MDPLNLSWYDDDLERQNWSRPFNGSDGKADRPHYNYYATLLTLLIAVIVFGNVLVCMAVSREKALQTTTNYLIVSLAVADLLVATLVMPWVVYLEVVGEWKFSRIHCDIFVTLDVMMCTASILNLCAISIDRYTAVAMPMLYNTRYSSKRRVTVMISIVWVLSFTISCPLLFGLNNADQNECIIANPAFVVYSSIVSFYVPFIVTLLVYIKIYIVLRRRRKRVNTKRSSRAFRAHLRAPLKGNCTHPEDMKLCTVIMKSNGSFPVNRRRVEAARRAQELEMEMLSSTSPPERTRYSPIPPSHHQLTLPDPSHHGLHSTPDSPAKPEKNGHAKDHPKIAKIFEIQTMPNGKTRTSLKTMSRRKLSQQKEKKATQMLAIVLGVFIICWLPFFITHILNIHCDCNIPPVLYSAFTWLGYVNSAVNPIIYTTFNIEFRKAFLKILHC
#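 Agonist mode: compounds alone added to overnight-plated D2 PathHunter cells for 90 min at 37 C, with 57 uM final dopamine (EC100) defining full response. Beta-arrestin recruitment detected by chemiluminescent reagent, read after 1 h at ambient temperature.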
# TRPML1 agonist: agonists of human TRPML1 channel | Q9GZU1 | TRPML1-expressing cells, Ca2+ dye fluorescence, FDSS; host cell line not named in the record; reference of the full effect not given here | activation, % (no concentration beside the values) | 410,000 compounds, 0.12% hits | AID 624414; in the data active = activation above about 50%; inconclusive = about 30% to 50%; inactive = below about 30%; note: 0% is about no effect; the text of the record puts the active cut at 80%
#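 Agonist activity was taken from a 110 s kinetic Ca2+ dye read on the FDSS after pinning compounds onto TRPML1-DL cells. The cells were seeded at 1,500/well with Tet inducer, incubated about 16 h, then dye-loaded at room temperature.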
# PINK1 modulator: modulators of PINK1 expression; PINK1 immunofluorescence, high-content cytometry, 24 h; Potency, µM (doses to about 76.6 µM), for the others: at the highest dose activation (PINK1 increase), usual class: activators; 410,000 compounds, 0.2% hits; AID 624263; active = well fitted activation curve with a large enough effect; inconclusive = small, poorly fitted or top-dose-only effect; inactive = flat fitted curve, though single readings scatter; cell line not stated here;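 note: potency is the fitted concentration of half-maximal effect; % of control where 0% means no effect; nearly all actives have a fitted effect of over 65% in size; a mitochondrial uncoupler was the plate control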
#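 Fluorescence from anti-PINK1 antibody, together with nuclear and cell stains, was scanned on a laser-scanning cytometer. Before staining, stable-line cells were incubated 24 hours with compounds at 5 concentrations; primary antibody 12 h at 10 degrees C.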
# CtBP-E1A blk: blocks the CtBP interaction with E1A; AlphaScreen GST-E1A/His-CtBP binding, 1536-well; active compounds read low; control for the full effect not named in the record; activity change, % (no concentration beside the values); 340,000 compounds, 0.49% hits; in the data active means activity change below about -65%; inconclusive means about -30% to -65%; inactive means above about -30%; note: % is set by controls: 0 for no effect and ±100 for the full control effect
#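 Steps: dispense buffer (Tris pH 8.0, NaCl 300 mM, TCEP 1 mM, BSA, Tween 20); add 5X protein mix (GST-E1A, His-CtBP, 125 nM each); pin 23 nL compound; 2 h at 37 °C, dark; add 5X beads (50 ug/mL); 1 h; read.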
# Six1-Eya2 blk: Six1/Eya2 interaction inhibition; Q15475+O00167; 360,000 compounds, 0.56% hits; activity change, % (no concentration beside the values); AlphaScreen GST-Six1/His-Eya2 binding, biochemical; active compounds read low; control for the full effect not named in the record; in the data active = activity change below about -65%; inconclusive = about -30% to -65%; inactive = above about -30%; note: % is set by controls: 0 for no effect and ±100 for the full control effect
#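 GST-Six1 + His-Eya2 (5X stock: 250/500 nM); Tris pH 8.0, 300 mM NaCl, 0.05% BSA, 0.02% Tween 20; GSH donor/Ni acceptor beads; 1 h 37 °C dark; AlphaScreen readout.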
# The depositor's hits bear a star; ? = inconclusive; · = no result given; [ ] = dose if it differs, or a comment.
SMILES,TRPML1 blocker,D2 agonist,TRPML1 agonist,PINK1 modulator,CtBP-E1A blk,Six1-Eya2 blk
C=CCn1c(SC(C)C(=O)Nc2ccc(F)c(F)c2F)nnc1C1CC1 (centres undefined),8,-3.4,0.3,-0.5%,-1,3
Cc1ccccc1NC(=O)Cc1nc(COC(=O)c2ccc(Cl)nc2)cs1,3,2.4,-1.1,2.0%,-1,-8
O=C(CNc1cccc(S(=O)(=O)N2CCCC2)c1)Nc1ccc(C(F)(F)F)cc1,-6,0.3,1.6,?,-2,-2
O=C(c1ccc(S(=O)(=O)N2CCCC2)cc1)N1CCN(Cc2ccc3c(c2)OCO3)CC1,6,1.6,-0.2,0.1%,0,-9
CC(C)CN(C(=O)COC(=O)c1cc(=O)[nH]c2ccccc12)c1c(N)n(Cc2ccccc2)c(=O)[nH]c1=O,-2,-2.2,0.4,0.5%,2,3
CCOc1ccc(-c2nc(C#N)c(NC3CC3)o2)cc1,6,-1.2,0.6,0.6%[38.3 µM],-6,-10
COc1ccccc1C1=NN(C(=O)c2ccccc2)C(c2ccc(Br)cc2)C1 (centres undefined),·,3.0,·,1.9%,-1,1
CC1(C)CC(=O)C(C=Nc2cccnc2/N=C/C2=C(O)CC(C)(C)CC2=O)=C(O)C1,20,-18,0.6,2.4%,0,-7
CCOC(=O)C(c1ccccc1)C(Nc1ccccc1)c1ccccn1 (centres undefined),-5,-3.9,-1.4,10%,·,0
C=CCn1c(SCC(=O)NC2CCCC2)nnc1-c1ccccn1,-19,1.2,0.8,-3.3%,-2,4
Cc1cc(NC(=O)CSc2nncn2N)no1,4,-0.6,-0.2,-0.1%,12,8
COc1ccccc1C(C)NC(=O)Cc1ccc(S(=O)(=O)N2CCOCC2)s1 (centres undefined),5,-0.1,-0.2,-0.7%,-1,8

# The list goes on (3 carried over from the part before).
SMILES,TRPML1 blocker,D2 agonist,TRPML1 agonist,PINK1 modulator,CtBP-E1A blk,Six1-Eya2 blk
C=CCn1c(SCC(=O)NC2CCCC2)nnc1-c1ccccn1,-19,1.2,0.8,-3.3%,-2,4
Cc1cc(NC(=O)CSc2nncn2N)no1,4,-0.6,-0.2,-0.1%,12,8
COc1ccccc1C(C)NC(=O)Cc1ccc(S(=O)(=O)N2CCOCC2)s1 (centres undefined),5,-0.1,-0.2,-0.7%,-1,8
O=c1c2cc(NC(=S)NC3CCCCC3)ccc2nc2n1CCCCC2,3,5.4,-0.5,-0.3%,-1,-7
Cc1cccc(NC(=O)CCCn2c(C)c3cnn(-c4ccccc4)c(=O)c3c2C)c1C,4,·,-1.1,1.6%,·,·
O=C(O)COc1ccc(-c2nccc(-c3ccccn3)n2)cc1,-16,-1.4,0.7,0.7%,·,-12
CCCCOc1c(Br)cc(CNCCCN2CCOCC2)cc1OC,2,5.4,-0.3,1.4%,0,-3
COc1cccc(/C=N/NC(=O)C(=O)Nc2ccccc2OC(F)(F)C(F)F)c1,8,-4.6,0.1,9.8%,-13,7
COc1cccc(C(c2c(O)cc(C)n(Cc3ccco3)c2=O)N2CCN(c3ccccc3)CC2)c1 (centres undefined),-3,·,0.6,0.5%,·,·
Cn1cc(S(=O)(=O)N2CCOCC2)cc1C(=O)Nc1cccc(Cl)c1,-1,0.5,0.1,1.9%,10,-1
O=C(CSc1nc2ccc(Cl)cc2[nH]1)NC1CCCc2ccccc21 (centres undefined),0,7.2,-0.7,?,1,0
C=CCOC(=O)Cn1cnc2c(sc3nc(C)cc(C)c32)c1=O,-1,-3.1,-0.3,0.7%,5,-11
O=C(O)c1ccc(S(=O)(=O)N2CCSCC2)cc1,-11,-4.3,0.1,1.6%,3,6
Cc1cccc(C)c1NC(=O)CN(C)CCc1ccccc1,·,-2.8,-0.7,2.4%,1,-2
CCOc1ccc2c(c1)c1nnc(SCC(=O)N3CCCCC3C)nc1n2C (centres undefined),12,0.1,1.3,0.4%,-9,0
CCOC(=O)C1=C(c2ccccc2)OC(N)=C(C#N)C1c1ccco1 (centres undefined),-6,2.1,3.1,?,6,5
CCN(CC)CCNC(=O)c1cc2cc3ccc(OC)cc3nc2o1,-2,-9.2,-0.5,1.4%,-12,14
CC1CC(C)(C)NC(=S)N1CCCC(=O)Nc1ccc2c(c1)OCCO2 (centres undefined),38,-0.8,-0.5,0.6%,-20,-16
O=C(COC(=O)c1cccc(Cl)c1)Nc1cccc(S(=O)(=O)NC2=NCCC2)c1,-13,-2.5,0.9,3.5%,-13,0
C[C@@H]1CN(C2CCN(Cc3nc(C(c4ccccc4)c4ccccc4)no3)CC2)C[C@H](C)O1,20,3.4,2.3,2.1%,-5,1
C/C(=N/OCC(=O)Nc1ccccc1)c1cccs1,-4,-2.7,-0.2,0.4%,6,18
O=C1N=C(N2CCN(Cc3ccccc3)CC2)S/C1=C/c1cccs1,-10,3.2,2.7,-1.1%,-3,-6
CCn1c(=O)c2c(nc3n2CC(C)CN3CCc2ccccc2)n(C)c1=O (centres undefined),-1,-2.7,1.6,-0.9%,-13,-16
C[C@H]1Cn2cnc(C(=O)N[C@@H](Cc3c[nH]c4ccccc34)C(=O)OC(C)(C)C)c2C(=O)N1,·,-0.6,·,1.2%,-11,-3
COc1cccc(/C=N/NC(=O)CNC(=O)c2ccc3c(c2)OCCO3)c1O,20,1.0,-0.4,-0.3%,?,-88*
C(=N\N1CCOCC1)/c1ccsc1,27,-3.9,-0.1,-0.8%,·,0
O=C(O)/C=C/C(=O)Nc1ccc(OC(F)(F)Cl)cc1,-3,-5.0,-0.8,7.7%,4,12

# 5 compounds already listed, ordered by heavy-atom count, low to high.
SMILES,TRPML1 blocker,D2 agonist,TRPML1 agonist,PINK1 modulator,CtBP-E1A blk,Six1-Eya2 blk
O=C(O)/C=C/C(=O)Nc1ccc(OC(F)(F)Cl)cc1,-3,-5.0,-0.8,7.7%,4,12
O=C1N=C(N2CCN(Cc3ccccc3)CC2)S/C1=C/c1cccs1,-10,3.2,2.7,-1.1%,-3,-6
CCn1c(=O)c2c(nc3n2CC(C)CN3CCc2ccccc2)n(C)c1=O (centres undefined),-1,-2.7,1.6,-0.9%,-13,-16
O=C(COC(=O)c1cccc(Cl)c1)Nc1cccc(S(=O)(=O)NC2=NCCC2)c1,-13,-2.5,0.9,3.5%,-13,0
C[C@H]1Cn2cnc(C(=O)N[C@@H](Cc3c[nH]c4ccccc34)C(=O)OC(C)(C)C)c2C(=O)N1,·,-0.6,·,1.2%,-11,-3

# Carrying on:
SMILES,TRPML1 blocker,D2 agonist,TRPML1 agonist,PINK1 modulator,CtBP-E1A blk,Six1-Eya2 blk
Cn1c(N)c(C(=O)COC(=O)c2ccc(OC(F)F)cc2)c(=O)n(C)c1=O,4,0.0,0.6,0.1%,·,-3
O=C(/C=C\c1ccco1)Nc1nc(-c2ccc3ccccc3c2)cs1,12,2.8,0.6,3.8%,20,5
C[C@H]1CN([C@@H](C)CO)C(=O)c2cccc(NC(=O)C3CC3)c2O[C@H]1CN(C)Cc1ccc(C(F)(F)F)cc1,-25,-2.3,-0.5,0.2%,0,20
O=C(O)c1cc(O)c2c(c1)[C@@H]([C@H]1c3cc(C(=O)O)cc(O)c3C(=O)c3c(O[C@@H]4O[C@H](CO)[C@@H](O)[C@H](O)[C@H]4O)cccc31)c1cccc(O[C@@H]3O[C@H](CO)[C@@H](O)[C@H](O)[C@H]3O)c1C2=O,8,14,-0.4,0.8%,9,?
COc1nc(N/N=C/c2ccc(C)cc2)nc(N2CCCCC2)n1,14,-3.2,0.4,15%,-3,3
O=C(CSc1nnnn1-c1ccccc1)N1CCN(C(=O)c2ccco2)CC1,-6,-1.0,-1.6,-1.6%,-1,-2
c1ccc2cc(CNCc3cccc4ccccc34)ccc2c1,17,-4.2,-0.3,12%,2,-9
COc1ccc(N2CCN(C(=O)CCc3c[nH]c4ccccc34)CC2)cc1,-7,5.2,-1.0,-0.3%,·,-10
O=C(Nc1nc2nc(-c3ccccc3)cc(=O)n2[nH]1)c1ccc(F)cc1,-9,·,1.4,0.9%,·,·
C=CCn1c(N)c(C(=O)Nc2ccc(C)c(C)c2)c2nc3ccccc3nc21,10,-2.0,0.8,?,?,-28
COc1ccc(NC(=O)c2cc(C3CCCCN3S(=O)(=O)Cc3ccccc3)on2)cn1 (centres undefined),·,-2.2,-0.3,1.0%,-2,-13
Cc1ccc(S(=O)(=O)/N=C2/NC(=O)/C(=C/c3ccccc3)S2)cc1,18,1.3,0.0,0.2%,2,-17
c1cc(-c2cn(C[C@H]3CC[C@@H]([C@@H]4CC[C@H](Cn5cc(-c6ccsc6)nn5)O4)O3)nn2)cs1,9,-3.0,-0.1,3.9%,-11,-22
O=C(Nc1ncccn1)c1cccs1,-9,-0.7,-0.8,-0.2%,-1,4
CSc1ncccc1C(=O)OCc1nc2ccsc2c(=O)[nH]1,-12,-5.8,-0.7,-1.3%,-1,-11
Cc1cc2c3ccccc3[nH]c(=O)n2n1,12,-3.9,-0.1,2.4%,-6,-25
COc1ccc(/C=C2\Sc3ccc(C(=O)N4CCN(Cc5ccccc5)CC4)cc3N(C)C2=O)cc1OC,8,14,-0.1,0.8%,·,-30
CC1CCN(C(=S)c2ccc([N+](=O)[O-])cc2)CC1,26,-0.4,5.4,-0.4%,-1,-23
COc1ccccc1N1CCN(C(=O)c2cc3c(C)nc4ccccc4c3o2)CC1,-7,4.1,-1.3,-1.6%,-28,-18
COc1ccc2nc(SCc3cnc(C)nc3N)[nH]c2c1,-18,3.2,0.2,-6.9%[38.3 µM],0,1
CC(=O)c1cc2c(cc1NS(=O)(=O)c1ccccc1)OCO2,-4,0.8,0.6,2.3%,2,8
O=C1c2ccccc2C(=O)N1CCC#Cc1ccc2cc(CCCO)oc(=O)c2c1,-4,2.6,-0.4,4.5%,7,2
CNC(=O)c1ccsc1NC(=O)c1ccc(S(=O)(=O)N2CCc3ccccc32)cc1,-14,0.6,0.3,2.4%,2,-1
CN(Cc1nc(-c2cccs2)no1)CC(O)c1ccccc1 (centres undefined),1,-3.0,-0.4,0.3%,3,-9
O=C(CCCc1ccncc1)c1ccccc1,10,-1.6,0.6,-0.7%,10,5
COc1ccc2c(C)cc(SCC(=O)NCCN3C(=O)CSC3=O)nc2c1,32,1.3,0.6,-0.1%,1,-5
CCN(CC)CC(C)(C)NS(=O)(=O)c1ccc(Cl)cc1,3,2.4,-0.1,·,1,5
Cc1ccc2[nH]cc(C(c3ccccc3)c3ccc(Cl)s3)c2c1 (centres undefined),-9,·,5.3,25%,·,·
CS(=O)(=O)N1CCN(c2ccccc2NC(=O)CSc2ccc(Cl)cc2)CC1,-9,-1.6,-0.3,1.1%,12,4
CN1CCN(C2Cc3ccccc3Sc3ccc(Cl)cc32)CC1 (centres undefined),34,·,0.6,-0.9%,-17,-24
CC1CCCN(C(=O)CN2C(=O)NC3(CCCCC3C)C2=O)C1 (centres undefined),16,0.2,-0.5,-1.2%,9,3
COC(=O)c1ccccc1NC(=O)/C=C/C(=O)O,5,-6.8,-0.3,2.2%,4,5
COc1ccc(C)cc1N(CC(=O)Nc1cccnc1)S(=O)(=O)c1ccccc1,-10,-6.4,2.3,1.9%,6,-3
CC(=O)c1ccc(-c2ccc(C(=O)N3CCC(C(N)=O)CC3)o2)cc1,-3,-3.8,-0.6,-1.4%,0,-8
